NPYLR7 ag = mosquito NPYLR7 agonism; AID 1259423; activation, % at 10 µM; HEK293T NPYLR7/Galpha15, GCaMP6s calcium fluorescence; hit rate 0.15% among 270,000; in the data active = activation above about 40%;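 also: 0% = vehicle and 100% = reference agonist at the receptor; some compounds past the cut are filed as inactive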
NPYLR7 ag max-min = second read-out of NPYLR7 ag, no call of its own (marks repeat the call); activation, %; measured here: Max-Min RFU normalised activation; some inactives read as strong as hits;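 span of the calcium signal over five minutes; 0% = vehicle and 100% = native peptide agonist; compound fluorescence can raise it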
Starred values were filed as active, the others as inactive; & = joins results of further samples.

Results follow in this order: NPYLR7 ag | NPYLR7 ag max-min
(1) Cc1noc(-c2cccc(C(F)(F)F)c2)c1C(=O)NCc1ccsc1
    -1 | -2
(2) CCOc1ccc(NC(=O)N2CCC(CCc3ccc(C(F)(F)F)cc3)CC2)cc1
    1 | 8
(3) O=C1NCCN(C(=O)c2cn(Cc3ccccc3F)nn2)C1c1cccc(F)c1 (stereo not drawn)
    24 | 10
(4) COc1ccc(-n2nnnc2CNC(=O)Cc2ccccc2)cc1
    -4 | -4
(5) N#Cc1ncn(Cc2nnnn2-c2ccc(Cl)cc2C(F)(F)F)n1
    4 | 1
(6) CCc1nc2c(OC)cccn2c1N(C)C(=O)C1CC1
    4 | -1
(7) N#C/C(=C\c1cccc(Cl)c1Cl)c1nc(N)c2ccccc2n1
    -9 | -10
(8) COCCNC(=O)CSc1nnc(N2CCN(C(=O)c3cccc4ccccc34)CC2)s1
    -9 | -13
(9) C=CCN(CC(=O)N(CCc1ccccc1)Cc1ccc(C)o1)Cc1ccc(F)cc1
    4 | 6
(10) O=C(NCc1ccc(F)cc1)C(C1CCCC1)N1CCN(C(=O)c2ccc(Cl)cc2)CC1 (stereo not drawn)
    10 | 13

Next structures follow.
Results follow in this order: NPYLR7 ag | NPYLR7 ag max-min
(11) O=C(O)c1nn(CCN2C(=O)c3ccccc3S2(=O)=O)c(=O)c2ccccc12
    2 | 7
(12) CCN(CC)S(=O)(=O)c1cccc(C(=O)NN=CC=Cc2ccccc2[N+](=O)[O-])c1
    -4 | -8
(13) Cc1ncc(-c2c(-c3ccccc3)ncn2Cc2csc(N)n2)[nH]1
    -3 | -8
(14) Cc1ccc(CNC(=O)c2cccc(C)c2NC(=O)c2ccco2)cc1F
    4 | 3
(15) Cc1cccc(-c2nc(C(N)=O)c3[nH]c(=O)n(-c4ccc5c(c4)OCO5)c3n2)c1
    15 | 5
(16) O=C(COc1ccc(Cl)cc1)N1CCC(c2nc(-c3ccc(F)c(F)c3)no2)CC1
    1 | 9
(17) CC1(C)CC(=O)N(CC(=O)O)c2ccccc2S1
    8 | 9
(18) COCC(=O)N1CCN(C(C(=O)Nc2ccc(C)c(F)c2)C2CCCC2)CC1 (stereo not drawn)
    -4 | -3
(19) O=C(c1cc(-c2ccccc2Cl)nn1-c1ccc(Cl)c(Cl)c1)N1CCN(c2cccc(C(F)(F)F)c2)CC1
    -2 | -1
(20) Cc1ccc(Nc2nc(NCCCOC(C)C)nc3c2cnn3-c2ccccc2)cc1
    0 | -1

More results follow:
Results follow in this order: NPYLR7 ag | NPYLR7 ag max-min
(21) CCc1nc2c(OCCOC)cccn2c1N(C)C(=O)c1ccccc1F
    -6 | -10
(22) CC(C(=O)N1CCC(C(N)=O)CC1)N1CC2C(C1)C2(C)C (stereo not drawn)
    7 | 2
(23) O=C1C(=Cc2ccc(F)cc2F)SC(=S)N1CCCN1CCOCC1
    6 | 3
(24) CCN(CC)c1ccc(CNC(=O)NCC2CCOC2)cc1F (stereo not drawn)
    2 | -1
(25) CCOc1ccc(OCC(=O)N2CCN(c3ncnc4c3nnn4-c3ccccc3)CC2)cc1
    -13 | -18
(26) O=C(Cn1cnc2ccccc2c1=O)NCc1cccnc1
    15 | 7
(27) Cc1ccc(-c2cn[nH]c2C2CCCN(C(=O)C3(Cn4ccnc4)CC3)C2)cc1 (stereo not drawn)
    4 | -6
(28) COc1ccccc1Cn1c(C)c(C(=O)Nc2ccc(OC)c(OC)c2)sc1=O
    13 | 7
(29) Cc1ccc(CN(Cc2nc3cc(C)ccc3o2)C(=O)C2C[C@@H]2c2ccccc2)cc1 (stereo partly drawn)
    1 | -1
(30) CC(C)=CC(=O)N1CCN(c2c(-c3ccccc3)cnc3ncnn23)CC1
    27 | 15

Additional results
Results follow in this order: NPYLR7 ag | NPYLR7 ag max-min
(31) CC(NC(=O)c1cc(-c2ccccc2Cl)nc2ccccc12)c1ccccc1 (stereo not drawn)
    0 | -2
(32) Cc1sc(=O)n(CCC(=O)Nc2cc(Cl)c(Cl)cn2)c1C
    2 | 2
(33) CC(=O)N1CCc2c(sc(NC(=O)CCOc3ccccc3)c2-c2nc3ccccc3s2)C1
    3 | 3
(34) Cc1cccc(N=Nc2c(O)[nH]c3c(I)cccc23)c1
    0 | -2
(35) CCOCCCn1c(SCC(N)=O)nc2sc(C)c(C)c2c1=O
    3 | 7
(36) CN1CC2(CCCN(C(=O)c3ccc(Cn4ccnc4)o3)C2)OC1=O (stereo not drawn)
    4 | 2
(37) CCOc1ccc(C2=NC(=Cc3cccc(OC)c3OC)C(=O)O2)cc1
    0 | -1
(38) CC(C)SC(NC(=O)OCc1ccccc1)C(=O)N1CCC2(CC1)OCCCO2 (stereo not drawn)
    -15 | -24
(39) CN1C(=O)C[C@@H](C(=O)NC23CC4CC(CC(C4)C2)C3)[C@@H]1c1cccnc1
    10 | 9
(40) CCOc1ccc(S(=O)(=O)NCc2ccco2)cc1OCC
    5 | 1

(more compounds)
Results follow in this order: NPYLR7 ag | NPYLR7 ag max-min
(41) CCOC(=O)c1cc(-c2cccc(NC(=O)c3ccccc3OC)c2)n(-c2ccc(F)cc2)n1
    0 | -2
(42) COc1ccccc1C(C1Sc2nc(C)nn2C1=O)N(C)Cc1ccccc1 (stereo not drawn)
    2 | -1
(43) O=C1c2ccccc2C(=O)N1CCSc1n[nH]c(C(F)(F)F)n1
    -8 | -11
(44) Cc1nc(CN2CCN(C(=O)CCN3Cc4ccccc4OC(c4ccccc4F)C3)CC2)cs1 (stereo not drawn)
    1 | 0
(45) CCOc1ccc(-c2ccc3nnc(SCC)n3n2)cc1
    -12 | -6
(46) CC(C)(C)c1ccc(CCC(=O)NCCn2cccc2)cc1
    2 | 1
(47) COc1ccc(C2SCC(=O)N(CC(=O)NCc3cccnc3)c3c2c(C(C)(C)C)nn3-c2cccc(C)c2)cc1OC (stereo not drawn)
    18 | 2
(48) CS(=O)(=O)n1nc(-c2ccccc2)nc1NCc1ccco1
    -2 | 14
(49) Cc1cc(C)c(C)c(OC(=O)c2sc(Cl)nc2C)c1
    9 | 10
(50) Cc1ncsc1C(=O)N1CCC(=O)N(Cc2ccc(F)cc2)C(C(C)C)C1 (stereo not drawn)
    7 | -1

Next results follow:
Results follow in this order: NPYLR7 ag | NPYLR7 ag max-min
(51) CCOC(=O)c1nn(-c2ccccc2C)c(=O)cc1OS(=O)(=O)c1ccc(OC)cc1
    -2 | 1
(52) CC(C)c1ccc(NC(=O)CCc2nc3sc4c(c3c(=O)[nH]2)CCCC4)cc1
    4 | 5
(53) CN(Cc1c(F)cccc1Cl)S(=O)(=O)N1CCc2ccccc2C1
    0 | -1
(54) Cc1nc2scc(C)n2c(=O)c1NC(=O)COc1ccc(Cl)cc1
    7 | -1
(55) CCCCCCCCSc1nc2ccccc2[nH]1
    1 | -14
(56) CCCCC(CC)C(=O)N1CCN(c2cc(Oc3ccc(F)cc3F)ncn2)CC1 (stereo not drawn)
    5 | 3
(57) CCOC(=O)CSC1=NN1c1nc(N)nc(C)c1CC
    20 | 11
(58) NC(=NS(=O)(=O)Cc1ccccc1)Nc1nc2ccccc2o1
    4 | 4
(59) Cc1cc(C(=O)N2CCN(CC(OCc3ccc(C#N)cc3)c3cccc(N4CCCC4)c3)CC2)no1 (stereo not drawn)
    5 | 0
(60) CC1(C)C(=O)NCCN1S(=O)(=O)c1ccc(C(F)(F)F)cc1
    13 | 4

Another view of part of the listing above:
entry | Molecule | NPYLR7 ag | NPYLR7 ag max-min
55 | CCCCCCCCSc1nc2ccccc2[nH]1 | 1 | -14
51 | CCOC(=O)c1nn(-c2ccccc2C)c(=O)cc1OS(=O)(=O)c1ccc(OC)cc1 | -2 | 1

(further entries)
Results follow in this order: NPYLR7 ag | NPYLR7 ag max-min
(61) Cc1ccc(-c2cc(C(=O)N3CCC4(CC3)OCCO4)n(-c3cccc([N+](=O)[O-])c3)n2)cc1C
    6 | 13
(62) Cn1ccn2ncc(C(=O)NCc3ccccc3Cn3cccn3)c12
    3 | 0
(63) O=C(c1cccc(NCc2c(F)cccc2Cl)c1)N1CCOCC1
    1 | 1
(64) COc1ccc(/C=N\N2C(=O)C3C4C=CC(CC4)C3C2=O)cc1OC (stereo not drawn)
    -3 | -11
(65) CCCS(=O)(=O)Nc1cccc(NC(=O)Cc2ccc(C)cc2)c1C
    -1 | -3
(66) C=CCCC(=O)N1CCc2ccccc2C1c1ccccc1F (stereo not drawn)
    12 | 3
(67) CN1CCN2C[C@@H](NC(=O)C3(Cn4cccn4)CC3)C[C@H]2C1
    3 | 2
(68) CNC(=O)c1cccc(CNC(=O)CC2C(=O)NCCN2Cc2ccccc2)c1 (stereo not drawn)
    -1 | 3
(69) O=C(CSc1ccc(NC(=O)c2cccc(F)c2)nn1)NCc1ccc2c(c1)OCO2
    3 | 0
(70) CN(C)c1ccc(/C=c2\sc3nc4cc(Br)cnc4n3c2=O)cc1[N+](=O)[O-]
    -4 | -13

Next section
Results follow in this order: NPYLR7 ag | NPYLR7 ag max-min
(71) CC(C)NC(=O)Cn1nc(-c2ccc(F)cc2)c2sc(N3CCCC3)nc2c1=O
    3 | 2
(72) Cc1nc(CNc2ccc3c(c2)CCN3C(=O)OC(C)(C)C)cs1
    -23 | -25
(73) COc1cccc(C(=O)NCCN2CCN(c3ccc(Cl)cc3)CC2)c1
    8 | -6
(74) Cc1ccccc1N1CCN(C(=O)c2ccc(OC3CCN(C(=O)C4CC4)CC3)cc2)CC1
    19 | 13
(75) CCCCCN(Cc1nc(C(=O)OCC)cs1)C(=O)Nc1ccc(OC)cc1
    -2 | 6
(76) COc1ccc(OCC(=O)Oc2coc(CSc3nc(C)cc(C)n3)cc2=O)cc1
    -12 | -8
(77) Clc1ccc(Cl)c(CSc2nnc(-c3cc(-c4ccccc4)nc4ccccc34)n2CC2CCCO2)c1 (stereo not drawn)
    -3 | 0
(78) C=C(C)CSc1nnc(NC(=O)CCc2ccccc2)s1
    14 | 11
(79) Nc1nc(SCc2ccc(Cl)c(Cl)c2)[nH]c(=O)c1NC(=O)c1ccccc1
    -4 | -6
(80) O=C1C[C@H]2CC[C@@H](CN1)N2C(=O)Cc1c[nH]c2ccccc12
    -7 | -7

Continued.
Results follow in this order: NPYLR7 ag | NPYLR7 ag max-min
(81) CSCCC(=O)NC1CCCc2nc(-c3cccnc3)ncc21 (stereo not drawn)
    -1 | -2
(82) Cc1cccc(NC(=O)CSc2nnc(CNC(=O)c3cc(Br)ccc3Cl)n2-c2ccccc2)c1
    -6 | 1
(83) O=C(NCc1ccccn1)c1ccc(CSc2nc(Cl)cc(N3CCN(c4cccc(Cl)c4)CC3)n2)cc1
    0 | 1
(84) CCOc1ccccc1C(=O)N1CCN(S(=O)(=O)c2cc3c4c(c2)CCC(=O)N4CCC3)CC1
    -2 | 6
(85) CC(C)N(Cc1nc2ccccc2c(=O)[nH]1)C(=O)c1ccccn1
    -8 | -10
(86) COc1ccccc1-c1nc2ccc(Cl)cn2c1NC(C)(C)CC(C)(C)C
    7&4 | 11&7
(87) CCCc1nc2nc3c(cn2n1)C(=O)CCC3
    -3 | -4
(88) COc1ccc(C(CNc2ncnc3sc4c(c23)CCCC4)N2CCOCC2)cc1OC (stereo not drawn)
    0 | -3
(89) COc1ccc(CC(=O)NOCc2ccc(F)c(Br)c2)cc1OC
    -2 | -5
(90) COc1ccccc1CCN(C)CC(=O)Nc1nc(C)cs1
    0 | -2

Whole records from above.
CCCc1nc2nc3c(cn2n1)C(=O)CCC3 is listed as NPYLR7 ag: -3; NPYLR7 ag max-min: -4
CC(C)N(Cc1nc2ccccc2c(=O)[nH]1)C(=O)c1ccccn1 is listed as NPYLR7 ag: -8; NPYLR7 ag max-min: -10

(next part)
Results follow in this order: NPYLR7 ag | NPYLR7 ag max-min
(91) C#CCN(CC=C)CCC(=O)N1CCCC(C)C1 (stereo not drawn)
    2 | 1
(92) O=C(CCNC(=O)C1CC(c2ccc3c(c2)OCO3)=NO1)NCc1ccco1 (stereo not drawn)
    0 | 2
(93) COc1ccccc1-n1c(Cc2ccccc2)nnc1SCc1nc(C(=O)N2CC(C)OC(C)C2)cs1 (stereo not drawn)
    -15 | -10
(94) Cc1ccc(-n2cc(S(=O)(=O)NC3CC(=O)N(C(C)C)C3=O)cn2)cc1 (stereo not drawn)
    1 | -2
(95) Cc1ccc(-n2c(SC(C)c3ccccc3)nc3c(c2=O)SCC3)cc1 (stereo not drawn)
    -1 | -2
(96) O=C(Nc1ccc(-c2noc(-c3cccc(Br)c3)n2)cc1)c1cccc(Br)c1
    -6 | -5
(97) CC(=O)Nc1ncc2c(n1)CCNC2=O
    4 | -1
(98) COc1ccc(C2c3cccn3-c3ccccc3N2C(=O)CN(C(=O)Nc2ccc(C)c(C)c2)C2CC2)cc1 (stereo not drawn)
    13 | 12
(99) C=CCN1CCN(c2ccc(-c3ccccc3)cc2)C(=O)C1C (stereo not drawn)
    0 | 4
(100) COc1ncccc1C(=O)NCc1ccc(N2CCCC2)cc1
    -2 | 0

Entries by screen from above:
Nos. 94–98 in NPYLR7 ag read 1, -1, -6, 4, 13
Nos. 94–98 in NPYLR7 ag max-min read -2, -2, -5, -1, 12

Other compounds.
Results follow in this order: NPYLR7 ag | NPYLR7 ag max-min
(101) COc1cccc(CN(C)C(=O)C2(c3ccc(Cl)cc3)CCCC2)c1
    12 | 14
(102) O=C(NCCc1ccccc1)C1CC=CCC1C(=O)N1CCc2c([nH]c3ccccc23)C1 (stereo not drawn)
    -11 | -20
(103) CCOC(=O)c1sc(=NC(=O)c2cc(Cl)sc2Cl)n(C)c1C
    1 | 1
(104) COCCNC(=O)c1ccc(CSc2nc(COC)cc(N3CCN(c4ccc(OC)cc4)CC3)n2)o1
    4 | 2
(105) O=C(NCCc1cccc(Cl)c1)N1CCN(S(=O)(=O)c2ccccc2F)CC1
    3 | -1
(106) Cn1cccc1C(=O)CC#N
    0 | 6
(107) CN(C)c1nc2cc3c(cc2nc1NS(=O)(=O)c1ccccc1)OCCO3
    11 | 3
(108) O=C(NCC(c1cccs1)N1CCCC1)NC1CCCCC1 (stereo not drawn)
    -1 | 17
(109) CCc1ccc(-n2c(C)c(C)n3c4c(=O)[nH]c(=O)n(C)c4nc23)cc1
    3 | 11
(110) CCOc1cccc(N2CCN(C(=O)Cc3ccccc3)C(C)C2=O)c1 (stereo not drawn)
    32 | 32
(111) O=C(NCc1ccco1)C1COC2(CCCCC2)N1C(=O)c1cccc([N+](=O)[O-])c1 (stereo not drawn)
    -2 | 9

From PubChem

A portion of the library (hit frequency here may not be typical).
